Tg IFNy HTS – T. gondii growth inhibition under IFN-gamma. 69,000 compounds, 3.8% hits. Toxoplasma gondii growth in IFN-gamma-treated host cells; stronger effect = lower value; reference of the scale not given here. activity change, negative = inhibition, %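 (about 20 µM by stock and volumes)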. AID 1259416;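 active means below -70%; inconclusive means fit judged invalid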;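 further: host cells are HeLa cells infected with Toxoplasma gondii; parasite growth read as luciferase light; one replicate is shown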
An asterisk follows results filed as active; i = inactive; ? = inconclusive; & = joins results of further samples. The list is partial; rates above refer to the full screens.

molecule	Tg IFNy HTS
COc1cc(OC)cc(C(=O)N[C@@H](CCSC)c2nc3ccccc3[nH]2)c1	35.0
OC[C@@H]1[C@H](c2ccc(-c3cccnc3)cc2)[C@H]2CN(Cc3ccccn3)CCCCN12	16.6
C[C@H](CO)N1C[C@H](C)[C@H](CN(C)C(=O)c2cc(Cl)cc(Cl)c2)OCc2ccccc2-c2ccccc2C1=O	-45.0
C[C@H]1CN([C@@H](C)CO)C(=O)c2ccccc2-c2ccccc2CO[C@H]1CN(C)Cc1cccc2c1OCCCO2	2.6
CS(=O)(=O)Nc1c(O)ccc2c1CCCC2C1=NCCN1 (stereo not given)	6.2
Cc1cc(C(=O)N2CCC3(CCCNC3)C2)ccc1N1CCOCC1 (stereo not given)	1.2
C=CCN1CC[C@H]2CN(Cc3ccsc3)C[C@H]2C1=O	174.9
CCCCC1C=CCN1C(=O)c1ccc(=O)[nH]c1 (stereo not given)	-3.1
CCn1c(C2CCCN(C(=O)C3CCNCC3)C2)nn(CCN(C)C)c1=O (stereo not given)	1.4
CCCCCCCCCCCCCCCCOP(=O)(O)OCC[N+](C)(C)C	14.8&3.5
CC(=O)N1CCc2nc(C(N)=O)sc2CC1	36.7
CNC(=O)CN1CCOCC2(CCCN(Cc3cc(C)nn3C)C2)C1 (stereo not given)	51.1
CCS(=O)(=O)N1CCC2(CC1)OC(=O)C(C)=C2C(=O)Nc1ccc(OC)c(OC)c1	33.0
c1ccc(C2CCCN2Cc2ccc3occc3c2)nc1 (stereo not given)	3.0
CCC(=O)Nc1ccc(S(=O)(=O)N2CCC3(CC2)Nc2cc(F)ccc2-n2cccc23)cc1	17.2
CC(C)(C)C1CCc2[nH]nc(C(=O)O)c2C1 (stereo not given)	27.7
CCS(=O)(=O)Nc1ccc2c(c1)C(=O)N(C)[C@H]1CC[C@H](CC(=O)NCc3ccccc3F)O[C@H]1CO2	12.2
O=c1[nH]nc(Cn2cccn2)n1Cc1ccccc1	5.7
c1ccc(Oc2ncccc2-c2noc(C3CCOC3)n2)cc1 (stereo not given)	4.4
Cc1ccc(NC(=O)N2CCc3nc(N4CCCC4)nc(C)c3CC2)cc1	43.2
Fc1cnc(N2CCC3(CC(Oc4ncccn4)CO3)C2)nc1 (stereo not given)	4.8
Cc1ccc(OC(=O)N(C)C[C@H]2OCc3ccccc3-c3ccccc3C(=O)N([C@@H](C)CO)C[C@H]2C)cc1	27.8
CCCn1c(CN[C@@H]2CCC[C@H]2Cc2cc(C)no2)nc2ccccc21	-1.6
CC(C)c1nc(Cn2ccnc2C(C)Cc2ccc3c(c2)OCO3)no1 (stereo not given)	18.1
O=C(C[C@@H]1C=C[C@H](NC(=O)Nc2ccc3c(c2)OCO3)[C@@H](CO)O1)NCCCN1CCOCC1	-9.5
COC(=O)c1cc2n(n1)CCCN(C(=O)c1cccc3[nH]c(C)nc13)C2	3.4
N#C[C@@H]1N[C@@H](CO)[C@@H]1c1ccc(C2=CCCC2)cc1	1.1
CN1CCn2c(-c3ccccc3)cnc2C12CCN(S(=O)(=O)c1ccccc1)CC2	-107.8*
c1ccc(-c2noc(-c3ccc(N4CCC(N5CCCCC5)CC4)nc3)n2)cc1	-13.8
Cc1cccc(-c2nc(C)c(CCNS(=O)(=O)c3ccc(C)c(C)c3)s2)c1	467.9

7 compounds already listed, sorted by length of the SMILES, descending.
molecule	Tg IFNy HTS
Cc1ccc(OC(=O)N(C)C[C@H]2OCc3ccccc3-c3ccccc3C(=O)N([C@@H](C)CO)C[C@H]2C)cc1	27.8
O=C(C[C@@H]1C=C[C@H](NC(=O)Nc2ccc3c(c2)OCO3)[C@@H](CO)O1)NCCCN1CCOCC1	-9.5
CN1CCn2c(-c3ccccc3)cnc2C12CCN(S(=O)(=O)c1ccccc1)CC2	-107.8*
Cc1cccc(-c2nc(C)c(CCNS(=O)(=O)c3ccc(C)c(C)c3)s2)c1	467.9
COC(=O)c1cc2n(n1)CCCN(C(=O)c1cccc3[nH]c(C)nc13)C2	3.4
CC(C)c1nc(Cn2ccnc2C(C)Cc2ccc3c(c2)OCO3)no1 (stereo not given)	18.1
Fc1cnc(N2CCC3(CC(Oc4ncccn4)CO3)C2)nc1 (stereo not given)	4.8

Returning to the listing, starting three compounds before the break.
molecule	Tg IFNy HTS
CN1CCn2c(-c3ccccc3)cnc2C12CCN(S(=O)(=O)c1ccccc1)CC2	-107.8*
c1ccc(-c2noc(-c3ccc(N4CCC(N5CCCCC5)CC4)nc3)n2)cc1	-13.8
Cc1cccc(-c2nc(C)c(CCNS(=O)(=O)c3ccc(C)c(C)c3)s2)c1	467.9
COc1ccc(N2CC3(CCN(c4cnccn4)C3)CC2=O)cc1 (stereo not given)	-0.5
Clc1ccc(CN(Cc2ccccc2)Cc2nnnn2C2CCCCC2)cc1	2.4
CCNC(=O)C[C@H]1CC[C@H]2[C@@H](COC[C@H](O)CN2C(=O)C2CCCC2)O1	-29.4
CCCCc1cc(=O)[nH]c(-c2ccc(CN(C)CC)cc2)n1	63.5
CCc1nnc(-c2ccc3ccn(CC(=O)Nc4ccc(Cl)cn4)c3c2)o1	-62.4
Cc1nc(CCNC(=O)[C@H]2CCCN2S(=O)(=O)c2ccc(C(C)(C)C)cc2)cs1	-40.8
COc1ccc(OC)c(CNC(=O)c2nc(Nc3cccc(C)c3)c3ccccc3n2)c1	-74.1*
Cc1cnn(Cc2nc(-c3ccc(NC(=O)c4ccc(Cl)s4)cc3)oc2C)c1	63.2
COc1cc(C)ccc1OCCNS(=O)(=O)c1cn(C)c(=O)n(C)c1=O	-11.9
COc1cccc(NC(=O)N2CC(=O)N3[C@H](C2)[C@@H](c2ccc(C#CCC4CCCC4)cc2)[C@@H]3CO)c1	-51.9
C[C@H](NC(=O)C[C@@H]1CC[C@H]2[C@H](COc3ccc(NS(=O)(=O)c4ccc(Cl)cc4)cc3C(=O)N2C)O1)c1ccccc1	?
CN1CCC=C(c2noc(C3CCCN3C(=O)C3CCCCC3)n2)C1 (stereo not given)	2.2
CCOc1ccc(CNc2nc(-c3nnc(-c4cccc(C)c4)o3)nc3ccccc23)cc1	-16.1
COc1ccccc1-c1ccc([C@H]2[C@H](C#N)N[C@@H]2CO)cc1	10.3
Cc1cccc(-c2ncc(CN3CCN(C4CCN(C(C)C)CC4)C(CCO)C3)cn2)c1 (stereo not given)	-46.3
Cc1cc(F)ccc1NC(=O)CN1C(=O)CCc2cc(S(=O)(=O)N3CCCCC3)ccc21	20.3
Cc1c(Br)c(C(F)(F)F)nn1CC(=O)NCc1ccc(Cl)cc1	5.5
CCn1nc(C)c(NC(=O)CN2CCc3[nH]nc(C4CCC4)c3C2)c1C	-4.9
Cc1ccc(S(=O)(=O)NC(=O)c2ccccc2)cc1	-23.5
CCOC(=O)c1c(C)nc(C)c(C(=O)OCC)c1-c1ccc(O)c(OC)c1	-11.6
CC(C)CCCCC(=O)NC(CCN)C(=O)NC(C(=O)NC(CCN)C(=O)NC1CCNC(=O)C(C(C)O)NC(=O)C(CCN)NC(=O)C(CCN)NC(=O)[C@H](CC(C)C)NC(=O)[C@@H](CC(C)C)NC(=O)C(CCN)NC1=O)C(C)O (stereo not given in full)	-67.6
Cn1c(CCNC(=O)c2cn(CC3CCCNC3)nn2)nc2ccccc21 (stereo not given)	0.8
Cc1ccsc1CN(Cc1cccn1-c1ncccn1)CC(C)C	6.1
CC(C)C[C@@H]1COCc2cn(nn2)CCCC(=O)N1	-13.0
COc1ccc2c(c1)NC1(CCN(C(=O)c3ccccc3C)CC1)c1cccn1-2	-2.7
O=c1[nH]n(CCO)c(=O)c2cccnc12	76.8
CCN1C(=O)CCC12CCC(NC(=O)c1c(C)noc1C)CC2 (stereo not given)	-51.3
O=C(C[C@H]1CC[C@H]2[C@@H](COC[C@H](O)CN2C(=O)Cc2ccccc2)O1)NC1Cc2ccccc2C1	-39.2
CN1c2ccc(Cl)cc2C(=O)NC12CCN(C(=O)NCCc1ccccc1)CC2	-15.3
O=C(CCN1C(=O)c2ccccc2C1=O)Nc1nccs1	6.5
c1ccc(COC2CCN(Cc3cccc4nccnc34)CC2)cc1	-6.5
CCn1ncc2c1C(COC)CN(Cc1ccc(C)o1)C2 (stereo not given)	6.9
Cc1nc(-c2ccc(F)cc2)sc1CCNC(=O)CC(C)(C)C	83.1
Cc1cccc(NC(=O)C(=O)NCCc2csc(-c3ccc(F)cc3)n2)c1	-37.7
NCC[C@H]1CC[C@@H](NC(=O)Cc2ccncc2)[C@@H](CO)O1	35.2
CC(=O)N1CCc2c(nc(-c3ccccn3)nc2NCCn2cccn2)C1	-5.7
CC1CCN(S(=O)(=O)c2ccc3c(c2)CCC(=O)N3CC(=O)NC2CCCc3ccccc32)CC1 (stereo not given)	-0.6
O=C1OC2(c3ccccc3)C3CCCC2C13Sc1ccccc1	-5.4
O=C1CCCn2cc(nn2)COC[C@H](c2ccccc2)N1	-6.0
NN1Nc2cc(S(N)(=O)=O)ccc2O1	3.7

(next part)
| Structure | Tg IFNy HTS |
| --- | --- |
| COc1ccc2[nH]c3c(c2c1)CCNC3=O | -89.5* |
| O=C(C(O)C(O)C(=O)N1CCCC1)N1CCCC1 (stereo not given) | 56.9 |
| O=C(Nc1ccc(CSc2ccc(Cl)cc2)o1)Nc1ccccc1F | -24.8 |
| O=c1cc(CSc2ccc(Cl)cc2)nc(N2CCCCC2)[nH]1 | 174.5 |
| COc1ccccc1NC(=O)NCC(c1cccnc1)c1c[nH]c2ccccc12 (stereo not given) | -22.8 |
| CNC(=O)[C@@H]1CC[C@H]2[C@@H](CCN2C(=O)N2CCCC2)O1 | 5.4 |
| Cc1cc(C)n(-c2cccc(-c3ccccc3OC(C)C(N)=O)c2)n1 (stereo not given) | 11.5 |
| COc1ccc(C2c3[nH]c4ccccc4c3CCN2C(=O)Cc2cccs2)cc1 (stereo not given) | 228.7 |
| CN1C[C@H](NC(=O)c2cccc(-c3nc4ccccc4[nH]3)c2)C[C@H]1CO | -2.5 |
| O=C(C1CC2(CCNCC2)CN1)N1CCC2(C=Cc3ccccc32)CC1 (stereo not given) | 55.6 |
| CCCn1nc(C)c(CNC(=O)c2sc(CC)nc2C)c1C | -64.4 |
| C=CCO[C@H]1CC[C@@H]2[C@H]1OCCN2C(=O)/C=C/c1cccs1 | 1.8 |
| CCCN(Cc1cccnc1)C(=O)C1CCN(Cc2ccco2)CC1 | -2.0 |
| CCS(=O)(=O)N1CCC2(CC1)CN(S(=O)(=O)c1ccc(C)cc1)[C@H](CO)c1[nH]c3cc(OC)ccc3c12 | 268.4 |
| COCCN1C(=O)CCc2cc(NC(=O)C3CCC3)ccc21 | 30.7 |
| CC(C)c1nc(N2CCC(NC(=O)c3ccc4c(c3)OCO4)CC2)ncc1-c1ccncc1 | 22.1 |
| O=C(c1nc(-c2cccc(F)c2)n2c1CCCCC2)N1CCN(c2ccccn2)CC1 | -38.7 |
| CC(C)Oc1cccc(-c2cccc(N3CCNCC3)n2)c1 | 9.8 |
| CNC(=O)c1ccc(-c2cccc(-n3cccn3)c2)s1 | 85.6 |
| CCCN1CCC2(CC1)NC(=O)N(CC1CCN(C(=O)c3cc(CC)no3)CC1)C2=O | 27.3 |
| CCCNC(=O)N1C[C@H](C)[C@H](OC)CN(C)C(=O)c2ccc(NC(=O)CC)cc2OC[C@@H]1C | -0.8 |
| COc1ccc2[nH]c(=O)c(CN(C)Cc3ncc[nH]3)cc2c1 | -0.3 |
| Cc1cc(C)nc(N2CCC(C3CC=CCN(CCc4ccccc4)C3=O)CC2)n1 (stereo not given) | -4.2 |
| O=C1[C@H](Cc2ccc(C(F)(F)F)cc2)CCn2nncc2COC[C@H]2CCCCN12 | 1.4 |
| CCn1cc(S(=O)(=O)N2CC=CC[C@@]3(C(=O)N4CCN(C)CC4)CCC[C@@H]23)cn1 | -8.8 |
| CC(C)(C)c1cn2cccc(OCc3ccc(Cl)c(Cl)c3)c2n1 | 132.7 |
| O=C(CCc1ccc(=O)[nH]n1)N1C[C@@H]2C3CCC(CC3)[C@@H]2C1 | -1.4 |
| C/C=C/c1cnc2c(c1)C(=O)N([C@H](C)CO)C[C@@H](C)[C@@H](CN(C)CC1CCOCC1)O2 | -29.8 |
| CNc1cc(-c2ccc(CN3CCCCC3)cn2)c2cc[nH]c2n1 | ? |
| COc1ccc(C2=NN(C(C)=O)C3(CCCC3)O2)cc1OC | 4.1 |
| O=C(c1ccncc1)N1CCC2(CCCN(C(=O)c3cnccn3)C2)C1 (stereo not given) | i |
| COc1ccc(-c2cc(C)ccc2N2CCOC2=O)c(OC)c1OC | -3.5 |
| COc1ccc(C2(C(=O)N3CCCC3c3ncc(C(N)=O)c(C)n3)CCOCC2)cc1 (stereo not given) | 13.2 |
| C=CCC(C)(C)CN1C[C@H](O)[C@@H](N2CCN(C)CC2)C1 | -2.2 |
| O=C(C[C@@H]1C=C[C@H](NS(=O)(=O)c2ccccc2)[C@H](CO)O1)NCCN1CCCCC1 | -26.2 |
| COCC1(C(=O)NC(C)C(=O)Nc2cc(F)ccc2C)CCC1 (stereo not given) | -6.6 |
| CN(C)c1ccc(CNc2nc(-c3nnc(-c4ccccc4)o3)nc3ccccc23)cc1 | 99.8 |
| Cc1cnc(N2CC[C@H]3CN(CC(=O)N(C)C)S(=O)(=O)[C@@H]3CC2)nc1 | -45.9 |
| O=C(NC1CCC1)C1CC12C(=O)Nc1ccccc12 (stereo not given) | 17.6 |
| Cc1cccc(C(=O)Nc2ccc(-c3nc(-c4ccccc4)co3)cc2)c1 | 22.6 |
| O=C(c1ccn[nH]1)N1CC[C@H]2CN(Cc3ccc(Cl)cc3)S(=O)(=O)[C@@H]2CC1 | -73.2* |
| CN(CCC(=O)Nc1cccc(N2CCCCS2(=O)=O)c1)c1ccc(F)cc1 | 11.2 |
| Cc1ccc(S(=O)(=O)N2CCC3(CC2)Nc2ccccc2-n2cccc23)cc1C | 20.8 |
| Cc1cc(CNc2cnccn2)c2[nH]c(-c3ccccc3)c(C)c2c1 | 225.8 |
| COc1ccc(-c2c[n+](CC(=O)OC3CC(C)CCC3C(C)C)c3n2CCC3)cc1 (stereo not given) | -6.7 |
| O=C(NCCc1csc(-c2cccc(F)c2)n1)C(=O)Nc1cccc(F)c1 | -56.3 |
| CN1C(=O)CCc2cc(NC(=O)c3ccco3)ccc21 | 147.7 |
| COCC(=O)N1Cc2ncn(CC3CC3)c2C(COC)C1 (stereo not given) | 24.4 |

Source: PubChem
